# Source: PubChem BioAssay (Broad Institute)
# FGF22 binding = binders of human FGF22 protein, primary screen, FGF22 synaptogenesis inhibitor project, biophysical, thermal shift, single point. AID 651658, 2012. calls only at 9.99 µM. actives 1.5% (n = 340,000). Fibroblast growth factor 22 (Homo sapiens), Q9HCT0. recombinant FGF22 thermal shift, SYPRO orange fluorescence; percent of sucrose octasulfate shift, DMSO zero;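 active = melting point raised past a set limit in the mean and every replicate; three in four hits are not shown here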
# Target sequence (Q9HCT0 whole entry, looked up): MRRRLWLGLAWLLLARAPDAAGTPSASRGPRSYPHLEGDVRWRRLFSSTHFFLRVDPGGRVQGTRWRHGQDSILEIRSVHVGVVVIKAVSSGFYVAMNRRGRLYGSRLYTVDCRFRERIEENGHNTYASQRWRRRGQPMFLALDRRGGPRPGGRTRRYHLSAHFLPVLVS
# Calls only; i = inactive; + = active, no number. Not all compounds are listed. The share of hits here may be higher or lower than overall.
# Start of the data: the first two records as a preview:
no.	Molecule	FGF22 binding
1	COc1cccc(NC(=O)C[C@@H]2CC[C@H]3[C@H](COc4ccc(NC(C)=O)cc4C(=O)N3C)O2)c1	i
2	CO[C@H]1CN(C)C(=O)c2cc(NC(=O)c3ccccc3F)ccc2OC[C@@H](C)N(CC2CC2)C[C@@H]1C	i

# The whole of this part, repeating the preview:
no.	Molecule	FGF22 binding
1	COc1cccc(NC(=O)C[C@@H]2CC[C@H]3[C@H](COc4ccc(NC(C)=O)cc4C(=O)N3C)O2)c1	i
2	CO[C@H]1CN(C)C(=O)c2cc(NC(=O)c3ccccc3F)ccc2OC[C@@H](C)N(CC2CC2)C[C@@H]1C	i
3	Cc1noc(C)c1S(=O)(=O)Nc1ccc2c(c1)C(=O)N([C@H](C)CO)C[C@H](C)[C@H](CN(C)C(=O)CCCN(C)C)OCCCC[C@H](C)O2	i
4	O=C(c1cccc(F)c1)N1CCCCN2[C@H](C1)[C@@H](c1ccc(-c3ccccc3)cc1)[C@@H]2CO	i
5	COc1ccccc1-c1cccc(-c2nc(C(=O)Nc3nccs3)cc3c2[C@H](CCO)N(C(=O)CC2CC2)C3)c1	i
6	O=C(N[C@@H]1CC[C@H](CCNC(=O)c2ccccc2F)O[C@H]1CO)c1cnccn1	i
7	C[C@H](CO)N1C[C@H](C)[C@@H](CN(C)Cc2cncnc2)Oc2cc(C#C[C@@H](C)O)ccc2S1(=O)=O	i
8	COc1cccc(-c2ccc(C3[C@@H]4CN(S(=O)(=O)c5cn(C)cn5)C[C@H]3N4)cc2)c1 (stereo partly drawn)	i
9	O=C(C[C@@H]1C=C[C@H](NC(=O)C2CC2)[C@H](CO)O1)NCc1ccncc1	i
10	CCC(=O)N[C@H]1CC[C@H](CCNC(=O)Nc2ccc(C(F)(F)F)cc2)O[C@@H]1CO	i
11	CC(=O)N1CC[C@@H]2[C@@H](CO)N(C)c3ccc(-c4cccc(F)c4)cc3[C@@H]21	i
12	CCCC#Cc1ccc2c(c1)O[C@@H](CN(C)C(=O)c1cccnc1)[C@@H](C)CN([C@H](C)CO)S2(=O)=O	i
13	CCCNC(=O)N1C[C@H](O)COC[C@H]2O[C@@H](CC(=O)N[C@H]3CCN(Cc4ccccc4)C3)CC[C@@H]21	i
14	C[C@@H]1CN([C@H](C)CO)C(=O)c2cccc(NC(=O)Nc3ccc(C(F)(F)F)cc3)c2O[C@@H]1CN(C)CC1CC1	i
15	C[C@@H]1CN([C@H](C)CO)C(=O)c2cc(NC(=O)Nc3ccc(C(F)(F)F)cc3)ccc2O[C@@H](C)CCCCO[C@H]1CN(C)S(C)(=O)=O	i
16	Cc1noc(C)c1S(=O)(=O)N(C)C[C@@H]1OCCCC[C@H](C)Oc2ccc(NC(=O)Nc3ccc(F)cc3)cc2C(=O)N([C@H](C)CO)C[C@@H]1C	i
17	Cc1noc(C)c1S(=O)(=O)N(C)C[C@H]1OCCCC[C@H](C)Oc2ccc(NC(=O)C3CCCCC3)cc2C(=O)N([C@@H](C)CO)C[C@H]1C	i
18	O=C(C[C@@H]1CC[C@@H]2[C@H](COC[C@@H](O)CN2C(=O)c2cnccn2)O1)NCc1ccccc1	i
19	CCS(=O)(=O)NCC[C@H]1CC[C@H](NC(=O)Nc2ccccc2)[C@@H](CO)O1	i
20	C[C@H]1CN([C@@H](C)CO)C(=O)Cc2cc(NS(=O)(=O)c3cn(C)cn3)ccc2O[C@H]1CN(C)Cc1ccc2c(c1)OCO2	i

# 2 compounds picked at random from those above, as already listed:
no.	Molecule	FGF22 binding
17	Cc1noc(C)c1S(=O)(=O)N(C)C[C@H]1OCCCC[C@H](C)Oc2ccc(NC(=O)C3CCCCC3)cc2C(=O)N([C@@H](C)CO)C[C@H]1C	i
19	CCS(=O)(=O)NCC[C@H]1CC[C@H](NC(=O)Nc2ccccc2)[C@@H](CO)O1	i

# Next section:
no.	Molecule	FGF22 binding
21	CCCNC(=O)N[C@H]1C=C[C@@H](CC(=O)NC2CCC2)O[C@H]1CO	i
22	O=C(C[C@H]1C=C[C@H](NC(=O)C2CCC2)[C@@H](CO)O1)NC1CCCCC1	i
23	COC(=O)C[C@H]1CC[C@@H]2[C@H](COc3ccc(NC(=O)Cc4cccs4)cc3C(=O)N2C)O1	i
24	COc1ccc(NC(=O)Nc2ccc3c(c2)[C@@H]2C[C@@H](CC(=O)N4CCN(C)CC4)O[C@H](CO)[C@@H]2O3)cc1	i
25	COc1ccc(S(=O)(=O)Nc2cccc3c2O[C@@H](CN(C)C)[C@@H](C)CN([C@H](C)CO)C3=O)cc1	i
26	CC[C@H](NC(=O)[C@H]1O[C@@H](n2cnc3c(=O)[nH]c(N)nc32)[C@H](O)[C@@H]1O)c1ccccc1	i
27	C[C@@H]1CN([C@H](C)CO)C(=O)CCCn2nncc2CO[C@@H]1CN(C)Cc1ccc2c(c1)OCO2	i
28	C[C@@H]1CCCCO[C@H](CN(C)C)[C@H](C)CN([C@H](C)CO)C(=O)c2cc(NC(=O)c3ccccc3)ccc2O1	i
29	O=C(NCc1nc2ccccc2[nH]1)C1=C[C@@H](c2ccc3c(c2)OCO3)C[C@@H](OCc2ccc(CO)cc2)O1	i
30	O=C(C1=C[C@H](c2ccc(C(F)(F)F)cc2)C[C@H](OCCCCO)O1)N1CCCCCCC1	i
31	CCCCCCCCN1C(=O)[C@@H](CC(=O)N2CCN(C(=O)C3CC3)CC2)C[C@@]2(C(=O)OC)C1=C[C@H](C1CCCC1)O[C@@H]2C	i
32	C[C@@H]1CCCCO[C@@H](CN(C)C(=O)Nc2ccc3c(c2)OCO3)[C@H](C)CN([C@H](C)CO)C(=O)c2cc(NS(=O)(=O)c3ccccc3)ccc2O1	i
33	C[C@H]1CN([C@@H](C)CO)C(=O)c2ccccc2-c2ccccc2CO[C@H]1CN(C)S(=O)(=O)c1ccsc1	i
34	CN1c2ccc(Br)cc2[C@@H]2[C@@H](CCN2C(=O)Nc2cccc(F)c2)[C@H]1CO	i
35	Nc1[nH]c(C(=O)c2ccc(Br)cc2)c(-c2ccncc2)c1C(=O)NCCc1c[nH]c2ccccc12	i
36	C[C@H](CO)N1C[C@H](C)[C@H](CN(C)S(=O)(=O)c2cn(C)cn2)Oc2cc(C3=CCCC3)ccc2S1(=O)=O	i
37	CCN1[C@H](C(=O)NCCc2cn(C)cn2)[C@@H](CO)[C@@H]2Cn3c(ccc(-c4cccnc4)c3=O)[C@@H]21	i
38	CCCC#Cc1ccc([C@H]2[C@@H](CO)N3CCCCN(Cc4cccnc4)C[C@@H]23)cc1	i
39	COc1cccc(-c2ccc3c(c2)[C@@H]2[C@@H](CCN2C(=O)c2ccccc2F)[C@@H](CO)N3C)c1	i
40	O=C(N[C@H]1CC[C@H](CCNC(=O)C2CCCCC2)O[C@H]1CO)c1ccncc1	i
41	CCNC(=O)[C@@H]1[C@@H](CO)[C@@H]2Cn3c(ccc(C4=CCCCC4)c3=O)[C@H]1N2Cc1ccncc1	i
42	O=C(NCc1ccccc1)[C@@H]1CCCN1C(=O)[C@H]1CCCN1C(=O)c1ccccc1F	i
43	Cc1cccc(S(=O)(=O)N2C[C@@H](O)COC[C@@H]3O[C@H](CC(=O)Nc4ccccc4)CC[C@H]32)c1	i
44	CC(C)NC(=O)N(C)C[C@@H]1Oc2ncc(-c3cc4ccccc4o3)cc2C(=O)N([C@H](C)CO)C[C@@H]1C	i
45	CO[C@@H]1CN(C)C(=O)c2ccc(NC(=O)C3CCCCC3)cc2OC[C@H](C)N(C(=O)c2ccccc2)C[C@@H]1C	i
46	CC1C=NC(S(=O)(=O)N2CC[C@H]3[C@@H](CO)N(C)c4ccc(-c5cccc(F)c5)cc4[C@H]32)=N1 (stereo partly drawn)	i
47	Cc1ccc(S(=O)(=O)N[C@@H]2C=C[C@@H](CC(=O)N3CCc4ccccc4C3)O[C@@H]2CO)cc1	+
48	Cc1ccc(-c2cnc3c(c2)C(=O)N([C@@H](C)CO)C[C@H](C)[C@@H](CN(C)C(=O)c2ccc(F)cc2)O3)cc1	i
49	C[C@@H]1CN([C@H](C)CO)C(=O)Cc2cc(NC(=O)NC3CCCCC3)ccc2O[C@@H]1CN(C)C(=O)Nc1ccc(F)cc1	i
50	C[C@@H]1CN([C@@H](C)CO)C(=O)c2cccc(NC(=O)c3cnccn3)c2O[C@H]1CN(C)S(=O)(=O)c1ccc(F)cc1	i

# Copied from above, nos. 42 to 45
no.	Molecule	FGF22 binding
42	O=C(NCc1ccccc1)[C@@H]1CCCN1C(=O)[C@H]1CCCN1C(=O)c1ccccc1F	i
43	Cc1cccc(S(=O)(=O)N2C[C@@H](O)COC[C@@H]3O[C@H](CC(=O)Nc4ccccc4)CC[C@H]32)c1	i
44	CC(C)NC(=O)N(C)C[C@@H]1Oc2ncc(-c3cc4ccccc4o3)cc2C(=O)N([C@H](C)CO)C[C@@H]1C	i
45	CO[C@@H]1CN(C)C(=O)c2ccc(NC(=O)C3CCCCC3)cc2OC[C@H](C)N(C(=O)c2ccccc2)C[C@@H]1C	i

# (listing goes on)
no.	Molecule	FGF22 binding
51	CC(C)NC(=O)N(C)C[C@@H]1Oc2cc(-c3ccccc3)ccc2S(=O)(=O)N([C@@H](C)CO)C[C@@H]1C	i
52	CCCNC(=O)[C@H]1[C@H](CO)[C@H]2Cn3c(ccc(-c4ccc(F)cc4)c3=O)[C@@H]1N2C(=O)NC(C)C	i
53	C[C@H]1CN([C@@H](C)CO)C(=O)c2cc(Br)cnc2O[C@@H]1CN(C)C(=O)c1ccccc1	i
54	CC(=O)NC[C@@H]1[C@@H](c2ccc(-c3ccccc3F)cc2)[C@H](CO)N1C(=O)C1CC1	i
55	Cc1noc(C)c1NC(=O)Nc1cccc2c1O[C@@H](CN(C)Cc1ccncc1)[C@H](C)CN([C@H](C)CO)C2=O	i
56	CO[C@H]1CC[C@@H]2CCOc3c(C#N)cccc3C(=O)N(C)[C@@H](C)C(=O)N(C)C[C@H]1O2	i
57	O=S(=O)(c1cccs1)N1CCCCN2[C@H](CO)[C@H](c3ccc(-c4ccccc4)cc3)[C@@H]2C1	i
58	C[C@@H]1CCCCO[C@@H](CN(C)C(=O)Nc2ccc(C(F)(F)F)cc2)[C@@H](C)CN([C@H](C)CO)C(=O)c2cc(NC(=O)c3ccccc3)ccc2O1	i
59	CNC(=O)C[C@H]1CC[C@H]2[C@@H](COC[C@H](O)CN2Cc2ccccc2F)O1	i
60	CCS(=O)(=O)N[C@H]1CC[C@@H](CC(=O)NCc2ccc(F)cc2)O[C@@H]1CO	i
61	CCCNC(=O)Nc1ccc2c(c1)C(=O)N(C)C[C@@H](OC)[C@H](C)CN(Cc1ccc(-c3ccccn3)cc1)[C@H](C)CO2	i
62	O=C(C[C@H]1CC[C@@H](NC(=O)C2CCC2)[C@@H](CO)O1)NCc1ccccc1Cl	i
63	COc1cccc(CN(C)C[C@H]2OCc3cn(nn3)CCCC(=O)N([C@H](C)CO)C[C@@H]2C)c1	i
64	C[C@@H]1CN([C@H](C)CO)S(=O)(=O)c2ccc(C3=CCCCC3)cc2O[C@H]1CN(C)C(=O)c1ccncc1	i
65	CO[C@H]1CN(C)C(=O)c2ccc(NC(=O)c3cccc(F)c3)cc2OC[C@@H](C)N(C(C)=O)C[C@H]1C	i
66	C[C@@H]1CN([C@H](C)CO)C(=O)Cc2cc(NS(C)(=O)=O)ccc2O[C@H]1CN(C)S(C)(=O)=O	i
67	COc1ccc(NC(=O)N[C@@H]2C=C[C@@H](CC(=O)NC3CCC3)O[C@H]2CO)cc1	i
68	CNC(=O)C[C@@H]1CC[C@@H]2[C@H](COc3ccc(NC(=O)c4ccc(OC)cc4)cc3C(=O)N2C)O1	i
69	C[C@H]1CN([C@@H](C)CO)C(=O)c2cccc(NC(=O)c3cnccn3)c2O[C@@H]1CN(C)Cc1ccc(C(=O)O)cc1	i
70	Cc1noc(C)c1S(=O)(=O)Nc1ccc2c(c1)C(=O)N([C@H](C)CO)C[C@H](C)[C@@H](CN(C)C(=O)Nc1cccc3ccccc13)OCCCC[C@@H](C)O2	i
71	O=C(C[C@@H]1C[C@H]2c3cc(NC(=O)Nc4ccccc4F)ccc3O[C@H]2[C@@H](CO)O1)NCc1ccccn1	i
72	C[C@H]1CN([C@@H](C)CO)C(=O)c2cccc(NS(=O)(=O)c3ccc(F)cc3)c2O[C@H]1CN(C)S(=O)(=O)c1ccc(F)cc1	i
73	O=C(C[C@@H]1CC[C@H](NC(=O)c2ccc3c(c2)OCO3)[C@H](CO)O1)NCc1ccc(F)cc1	i
74	CC(=O)N(C)C[C@H]1Oc2ncc(-c3ccc(F)cc3)cc2C(=O)N([C@@H](C)CO)C[C@@H]1C	i
75	CCCN(C)C[C@@H]1Oc2cc(C#CCc3ccccc3)ccc2S(=O)(=O)N([C@H](C)CO)C[C@@H]1C	i
76	COc1cccc(NC(=O)N[C@H]2CC[C@H](CC(=O)NCc3ccncn3)O[C@@H]2CO)c1	i
77	CCC(=O)N(C)C[C@H]1Oc2cc(C#CCN(C)C)ccc2S(=O)(=O)N([C@H](C)CO)C[C@@H]1C	i
78	CN(C)C(=O)c1ccc(-c2ccccc2[C@H]2[C@@H](CO)N(C(=O)C3CCCCC3)[C@H]2C#N)cc1	i
79	CCC(=O)N1CC(=O)N2[C@H](CO)[C@@H](c3ccc(C#Cc4cccnc4)cc3)[C@@H]2C1	i
80	COc1ccc(S(=O)(=O)Nc2ccc3c(c2)CC(=O)N([C@@H](C)CO)C[C@@H](C)[C@@H](CN(C)Cc2ccc(Oc4ccccc4)cc2)O3)cc1	i
81	C[C@H]1CN([C@@H](C)CO)C(=O)CCCn2cc(nn2)CO[C@@H]1CN(C)Cc1cccnc1	i
82	C[C@@H]1CN([C@@H](C)CO)C(=O)Cc2cc(NC(=O)c3ccncc3)ccc2O[C@H]1CN(C)C	i
83	O=C(Nc1ccc(Cl)cc1)N1C[C@H]2[C@@H](c3ccccc31)[C@@H](CO)N2C(=O)c1ccccn1	i
84	N#C[C@@H]1[C@@H](c2ccc(C3=CCCCC3)cc2)[C@H](CO)N1C(=O)CN1CCOCC1	i
85	C[C@H]1CN([C@@H](C)CO)C(=O)c2cc(-c3ccncc3)cnc2O[C@H]1CN(C)C(=O)Nc1ccc2c(c1)OCO2	i
86	O=C(Nc1ccccc1F)N[C@H]1CC[C@@H](CCNC(=O)C2CCOCC2)O[C@@H]1CO	i
